NPR1 antag = antagonists of human natriuretic peptide receptor Npr1; P16066; HEK293 hNpr1 GloSensor cGMP, ANP-stimulated luminescence; Potency, µM (highest dose often 46.3 µM), without a hit: at the highest dose activity change, negative = inhibition, hits mostly inhibitors; 76,000 compounds, 1.6% hits; AID 1347048; active = well fitted inhibition curve with a large enough effect; inconclusive = small, poorly fitted or top-dose-only effect; inactive = no such curve, though single readings can be large or run the other way;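 note: nearly all actives have a fitted effect of over 60% in size; nearly all hits also lower the signal before the agonist is added; a reference antagonist and vehicle were the controls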
Target sequence (P16066 whole entry, looked up): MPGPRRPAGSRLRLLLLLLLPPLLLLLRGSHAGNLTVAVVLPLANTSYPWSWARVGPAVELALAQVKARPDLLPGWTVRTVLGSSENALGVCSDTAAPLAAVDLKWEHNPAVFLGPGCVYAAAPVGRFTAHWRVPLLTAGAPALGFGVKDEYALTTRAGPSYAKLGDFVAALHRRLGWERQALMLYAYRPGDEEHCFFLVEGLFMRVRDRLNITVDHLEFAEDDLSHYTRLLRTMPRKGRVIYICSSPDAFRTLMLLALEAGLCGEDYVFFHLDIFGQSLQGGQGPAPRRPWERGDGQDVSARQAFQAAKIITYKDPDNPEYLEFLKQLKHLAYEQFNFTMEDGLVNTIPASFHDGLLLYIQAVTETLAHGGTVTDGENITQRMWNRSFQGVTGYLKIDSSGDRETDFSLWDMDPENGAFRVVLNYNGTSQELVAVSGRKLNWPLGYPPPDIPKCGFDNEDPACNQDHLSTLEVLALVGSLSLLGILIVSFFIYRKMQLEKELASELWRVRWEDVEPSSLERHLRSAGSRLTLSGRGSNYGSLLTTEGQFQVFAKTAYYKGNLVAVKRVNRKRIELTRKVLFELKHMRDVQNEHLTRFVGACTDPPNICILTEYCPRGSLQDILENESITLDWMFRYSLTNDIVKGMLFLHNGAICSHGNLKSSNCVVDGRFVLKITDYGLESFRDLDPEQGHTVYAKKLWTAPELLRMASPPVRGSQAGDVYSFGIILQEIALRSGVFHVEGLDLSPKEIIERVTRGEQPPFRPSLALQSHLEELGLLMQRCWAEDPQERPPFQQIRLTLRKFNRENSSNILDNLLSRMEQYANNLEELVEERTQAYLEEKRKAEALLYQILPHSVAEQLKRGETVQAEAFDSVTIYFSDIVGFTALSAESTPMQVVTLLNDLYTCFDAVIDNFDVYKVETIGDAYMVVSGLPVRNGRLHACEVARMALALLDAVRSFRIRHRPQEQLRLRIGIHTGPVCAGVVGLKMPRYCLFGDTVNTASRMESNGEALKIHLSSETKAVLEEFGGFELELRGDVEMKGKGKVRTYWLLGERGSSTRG
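Compound pre-incubated 30 min at room temperature on GloSensor-loaded HEK293 cells stably carrying hNpr1 and the pGS-40F cGMP biosensor. Stimulation uses hNppA at 0.1 nM final; luminescence is taken at baseline and 20 min post-agonist.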
The depositor's hits bear a star; ? = inconclusive; [ ] = dose if it differs, or a comment. % is set by controls: 0 for no effect and ±100 for the full control effect; potency is the fitted concentration of half-maximal effect. Not all compounds are listed; the hit share may differ from the screen's.

| Compound | NPR1 antag |
| --- | --- |
| O=C1N(CC2CC2)CCCC1(O)CNCc1cc(F)cc(F)c1 (centres undefined) | 1% |
| O=C(CC[C@H]1NC(=O)c2ccccc2NC1=O)Nc1n[nH]c(Cc2ccc(F)cc2)n1 | 1% |
| O=C1NCCCCCCN(Cc2ccncc2)[C@@H]2CN(S(=O)(=O)Cc3cccc(F)c3)CC[C@H]12 | 1% |
| CN1C(=O)C(c2ccccc2)CC12CCN(C(=O)C1CCCC1)CC2 (centres undefined) | 0% |
| CC[C@H]1CN(S(=O)(=O)c2ccc(OC)cc2)CC[C@H]1CC(=O)Nc1ccccc1 | 1%[70.6 µM] |
| CCn1cc(S(=O)(=O)N2CCC(Cc3nncn3C)C2)cn1 (centres undefined) | -7% |
| O=C(NCc1ccccc1F)N1C[C@@H](CN2CCCCC2)[C@@H](CO)C1 | 3% |
| O=C1NC2(CN(C(=O)c3ccccc3)C2)Oc2ccccc21 | 3%[70.6 µM] |
| CN1c2cc(C(=O)Nc3ccc(Oc4ccccc4)cc3)ccc2C(=O)N2CCCCCC21 (centres undefined) | ? |
| Cc1ccc(C#N)c(N2CCCC(c3n[nH]c(=O)n3-c3ccccc3)C2)n1 (centres undefined) | -8% |
| COCCn1cc2c3c(cccc31)CN(C(=O)Cc1ccccc1C)CC2 | -2% |
| COc1cc(C(=O)N2CCCN(c3cc(-c4ccc(C)c(C)c4)[nH]n3)CC2)cc(OC)c1OC | -3% |
| CN(CC1CCOCC1)C(=O)c1c(F)cccc1Cl | 3% |
| Cc1ccn2c(C(=O)NCc3cccnc3N3CCN(C)CC3)c(C)nc2c1 | 0% |
| CCn1cc(CN(C)C(=O)CCC[C@H]2NC[C@@H]3C[C@H]2CN(Cc2ccccc2)C3)c(C)n1 | -9% |
| COc1ccc(N2CCN(C(=O)CN3C(=O)C(c4ccccc4)=NC3(C)C)CC2)cc1 | 0% |

An excerpt from above in order of number of heavy atoms, high to low:
| Compound | NPR1 antag |
| --- | --- |
| COc1cc(C(=O)N2CCCN(c3cc(-c4ccc(C)c(C)c4)[nH]n3)CC2)cc(OC)c1OC | -3% |
| CN1c2cc(C(=O)Nc3ccc(Oc4ccccc4)cc3)ccc2C(=O)N2CCCCCC21 (centres undefined) | ? |
| COc1ccc(N2CCN(C(=O)CN3C(=O)C(c4ccccc4)=NC3(C)C)CC2)cc1 | 0% |
| Cc1ccn2c(C(=O)NCc3cccnc3N3CCN(C)CC3)c(C)nc2c1 | 0% |
| COCCn1cc2c3c(cccc31)CN(C(=O)Cc1ccccc1C)CC2 | -2% |
| O=C(NCc1ccccc1F)N1C[C@@H](CN2CCCCC2)[C@@H](CO)C1 | 3% |
| CN(CC1CCOCC1)C(=O)c1c(F)cccc1Cl | 3% |

Going on with the list:
| Compound | NPR1 antag |
| --- | --- |
| C=CCCC(=O)N1CCOc2c(O)cc(-c3nc4ccccc4s3)cc2C1 | -26% |
| Cc1ccn(CCCNc2cc(C(C)C)ncn2)n1 | 5% |
| CC(C)C1=NOC2(CCN(Cc3cccc(C(F)(F)F)c3)CC2)C1 | 0%[70.6 µM] |
| COc1ccccc1-c1ccnc(N[C@H]2CO[C@H]3[C@@H]2OC[C@@H]3NS(=O)(=O)c2cccs2)n1 | 1% |
| COc1ccc(-c2ccc3c(n2)CN(CCOc2ccccc2)C(=O)CO3)cc1F | ? |
| COc1ccccc1C(=O)N1CCCn2nc(C)c(-c3ccnn3C(C)C)c21 | -3%[70.6 µM] |
| O[C@@H]1C[C@@H](c2nnc3n2CCN(Cc2ccc(F)c(F)c2)C3)N(Cc2cccnc2)C1 | 5% |
| Cn1ccc(NC(=O)c2cc(-c3ccccc3F)cc3c2OCCN3Cc2cccnc2)n1 | -10% |
| CN(Cc1ccccc1)Cc1ccc(-c2ccccc2)cc1 | 0%[70.6 µM] |
| CN1[C@@H](CCC(=O)NCc2cccnc2)CNC(=O)[C@@H]2[C@H]1CCN2Cc1ccc(F)cc1 | -1% |
| COCCNC(=O)CCc1c(C)nn(-c2ccc(OC)cc2)c1Oc1ccccc1F | -10% |
| Cc1ccc(CC(=O)NC2CCN(c3nnc4cccc(C)n34)CC2)cc1 | -2% |
| CCCS(=O)(=O)N1CCC2(CCCCO2)CC1 | -2% |
| CC1(C)[C@H]2CC[C@@H](CNC(=O)c3cccnc3)[C@@H]1C2 | -20%[70.6 µM] |
| Cc1c(CN(C)C(=O)CC2C(=O)NCCN2CC(C)(C)C)[nH]c2ccccc12 (centres undefined) | -1% |
| COc1ccc(Nc2cc3c(cn2)NCCN(Cc2ccccc2)C3)cc1 | ? |

3 entries out of the list above, arranged by the value under NPR1 antag, rising:
| Compound | NPR1 antag |
| --- | --- |
| COCCNC(=O)CCc1c(C)nn(-c2ccc(OC)cc2)c1Oc1ccccc1F | -10% |
| CCCS(=O)(=O)N1CCC2(CCCCO2)CC1 | -2% |
| CN1[C@@H](CCC(=O)NCc2cccnc2)CNC(=O)[C@@H]2[C@H]1CCN2Cc1ccc(F)cc1 | -1% |

The list goes on:
| Compound | NPR1 antag |
| --- | --- |
| Cc1nc(C2(C)CCN(C(=O)Cc3c(C)noc3C)CC2)no1 | 3% |
| CC(C)CNC(=O)C1COC2(CCN(C(=O)c3ccccc3F)CC2)N1C(=O)c1cccc(F)c1 (centres undefined) | 3% |
| O=C(O)c1cc(Br)cc(S(=O)(=O)NC2CCCCC2)c1 | -10% |
| C=CCNC(=O)[C@@H]1CCCN1C1(C(=O)NC)CCOCC1 | 3%[70.6 µM] |
| Cc1ccccc1OCC(=O)N1C[C@@H](CN2CCCCC2)[C@@H](CO)C1 | -5% |
| Cn1nc(-c2nncn2-c2ccccc2)c2c1CCN(C(=O)c1ccncc1)C2 | -4% |
| C[S+](=O)([O-])c1ccc(CC(=O)N2CC(COc3ccccc3)C3(C2)CN(c2ccccc2)C3)cc1 (centres undefined) | 0% |
| CCCn1cnnc1-c1nc2c([nH]1)CC(c1ccccc1OC)CNC2=O (centres undefined) | -1% |
| CN1c2cccnc2CN(C(=O)Nc2ccc(Cl)cc2)CC[C@H]1CO | -1%[70.6 µM] |
| CC(C)c1noc(C2CCCN(C(=O)NC(C)(C)C)CCC(=O)NCC2)n1 (centres undefined) | 1% |
| Cn1c(=O)n([C@H]2CCCN(S(=O)(=O)Cc3ccccc3)C2)c2ncccc21 | -12% |
| NC(=O)[C@@H]1CN(C(=O)Cc2ccc(F)cc2)C[C@H]1COc1ccccc1 | 8% |
| COc1ccc(CN2C(=O)CO[C@H](c3ccc(NC(=O)c4ccccc4OC)cc3)[C@H]2CO)cc1 | -1% |
| COc1ccc(NC(=O)Cn2c(=O)n(-c3cccc(C)c3)c(=O)c3c2cc(C)n3C)c(OC)c1 | -8% |
| Cc1noc(C)c1CC(=O)NCC12CCC=C1NC(=O)CC2 (centres undefined) | -1% |
| CC1(COc2ccccc2)COc2ccc(C(=O)NCc3cccnc3)cc2N1 (centres undefined) | 1%[70.6 µM] |
| CC(C)CCCC1CN(C(=O)c2cn(CCCN)nn2)CCO1 (centres undefined) | -1% |
| CC(CCc1ccccc1)NC(=O)C1CCN(c2cc(C(F)(F)F)ncn2)CC1 (centres undefined) | ? |
| CC(=O)c1ccc(NC(=O)N2Cc3[nH]cnc3C[C@H]2c2nc(-c3ccc(F)cc3)no2)cc1 | -3% |
| CN(Cc1nccs1)c1cc(C2CC(O)C2)ncn1 (centres undefined) | 5% |
| COc1ccc(-c2noc([C@@H]3CCCN3C(=O)c3cccc(Cl)c3)n2)cc1 | -6% |
| Cc1ccccc1-c1nc2cc3c(cc2cc1CN1CCC[C@H]1CO)OCO3 | -1% |
| CC(C)c1noc(Cn2nc(-c3ccccc3)c3ccccc3c2=O)n1 | -2% |
| COc1ccc(CC(=O)N[C@H]2[C@H](O)[C@H](O)C[C@@H]2c2cccnc2)cc1 | 4%[70.6 µM] |

Next compounds
SMILES	NPR1 antag
O=C(NC1CCCN(c2cc(-c3ccccc3)[nH]n2)C1)c1ccccc1F (centres undefined)	-15%
CC(=O)N1CCC(N2CCN3C(=O)N(Cc4ccccn4)C[C@H]3C2)CC1	4%[70.6 µM]
COc1cccc(CNC(=O)[C@@H]2C[C@@H](O)CN2C2CCN(C(=O)c3sccc3C)CC2)c1	0%
COc1ccc(-c2cc3nc4c(c(=O)n3[nH]2)CN(C(=O)NCc2ccco2)CC4)cc1	-2%
COc1ccc(-c2nc(C(C)C)nc3c2CN(C(=O)c2ccc4c(c2)OCO4)CC3)cc1	-17%
Cc1ccsc1CN1CCCCCCNC(=O)CC1	-1%
COc1cccc(C(=O)N2CC(CO)C3(CCNCC3)C2)c1OC (centres undefined)	6%
Cc1ccc(C(=O)N2CC[C@@H]3CN(S(C)(=O)=O)[C@@H]3C2)c(C)c1	3%
Cc1nc2c(c(N[C@@H]3COCC[C@H]3OCc3ccccn3)n1)CCC2	3%
O=C(c1ccc(F)cc1Cl)N1CCC(n2cc(-c3nc(-c4ccccc4)no3)nn2)CC1	18µM*
COc1ccc(-c2ccccc2NC(=O)C2CCCN2C(=O)NC(C)C)cc1 (centres undefined)	2%
O=C(NCc1cccnc1-n1cncn1)C1CC2(CCNCC2)CN1 (centres undefined)	1%
Cc1ccc(C(C)NC(=O)CN2C(=O)C3(CCNCC3)Nc3ccccc32)cc1 (centres undefined)	-1%
COc1ccc(C(=O)N2CCCCCNC(=O)[C@@H]3CCC[C@@H]32)c(OC)n1	5%
Cc1cc(C(=O)N2CCCC(CCc3c(F)cccc3F)C2)no1 (centres undefined)	2%
O=C1NCCCCCCN(C(=O)c2ccncc2)[C@H]2CCCC[C@@H]12	1%
Cc1cccc2oc(CNC(=O)C(c3cccnc3)N3CCOCC3)nc12 (centres undefined)	-2%
COC[C@@H]1CN(C(=O)c2cc(Cl)ccc2F)C[C@H]1C(N)=O	-1%
CC(C)C(NC(=O)C1CCN(C(=O)C2CC2)CC1)c1nccn1C (centres undefined)	3%
Cc1ccc2nc(C3CCCN(CC(C)C)C3)[nH]c(=O)c2c1 (centres undefined)	4%[70.6 µM]
Cc1nc(N2CCN(C(=O)c3cccc(F)c3)CC2)cc(C(F)(F)F)n1	0%
O=C(Nc1cccc(-n2cccn2)c1)C1CCCN1C(=O)C1CCCCC1 (centres undefined)	3%
CC(=O)N1CCN([C@H]2[C@@H]3OC[C@@H](O3)[C@@H](NCc3ccc(OC(F)(F)F)cc3)[C@@H]2O)CC1	11%
O=C1CS(=O)C2(CCN(S(=O)(=O)Cc3ccccc3)CC2)N1CC1CC1 (centres undefined)	-3%
CCCN1CCN(C(=O)C2CCCN(c3cnn(Cc4ccccc4)c(=O)c3)C2)CC1 (centres undefined)	-11%
COc1ccc(N2CCN(c3nc(C(=O)N4CCN(C)CC4)cs3)CC2)cc1	-25%
Cc1cc(N2CCN(C(=O)Cn3nnnc3CN3CCC(C)CC3)CC2)cc(C)n1	-5%
CCN1CCN(c2ncc(C(C)(C)C(=O)O)c(N3CCOCC3)n2)CC1	7%
COCC(=O)N[C@@H]1CN(C(=O)c2ccc(F)cc2)CC[C@@H]1CO	-1%
C=CCN(Cc1cccc(OCC)c1)C(=O)c1ccc(=O)[nH]c1	7%
CCCCc1nn(CC(=O)N(C)Cc2cc(C)on2)c(=O)n1CC	-3%
O=C(c1cn(CCC2CCCCC2)nn1)N1CCN(C(=O)c2ccco2)CC1	-1%
O=C(c1ccc2c(c1)OCO2)N1CCCC2(CNc3ccccc3[S+](=O)([O-])N2)C1 (centres undefined)	6%
O=C(c1ccc2ncccc2c1)N1CCCCCC1c1nnc(-c2ccccc2)o1 (centres undefined)	-5%
O=C(NC1CCCN(c2cc(-c3ccccc3)[nH]n2)C1)c1ccccc1Cl (centres undefined)	-7%
CC(=O)NCCNC[C@@H]1C=C(C)[C@H](Cc2nnc(-c3ccc(C)cc3)o2)C[C@H]1C(C)C	-21%[70.6 µM]
CCOCCCNC(=O)C1Cn2cccc2C(=O)N1 (centres undefined)	3%
N#Cc1ccc(C(=O)N2CCC3(CC2)NC(=O)N(Cc2ccccc2Cl)C3=O)cc1	-28%
COC1CCN(c2ccc(C(=O)N3CCC(N4CCOCC4)CC3)cn2)CC1	3%
COc1cc(CNCCOc2ccccc2)ccc1OCC(O)CN1CCOCC1 (centres undefined)	4%
COc1ccc(C(=O)N2CCC3(CC2)NC(=O)N(c2ccc(F)cc2)N3)cc1F	0%
COc1ccc(CCNC(=O)c2ccc3c(c2)N(C)C2CCCCN2C3=O)cc1OC (centres undefined)	3%
O=C(Nc1ccc([C@H]2OCC(=O)N(Cc3ccccc3)[C@@H]2CO)cc1)C1CCOCC1	3%[70.6 µM]
CCCC(=O)Nc1cccc(C(=O)NC(C(=O)O)c2c(C)n[nH]c2C)c1 (centres undefined)	-2%
O=C(NCc1ccccc1Cl)C1CCN(c2cnc3nccnc3c2)CC1	4%
CC1CCCN(C(=O)CCN2CCN(CCc3ccccc3)CC2)C1 (centres undefined)	2%
O=C(Nc1ccc(Cl)nc1)c1cc2cccnn2n1	17%[70.6 µM]
O=C(CCc1nc2ccccc2s1)N1CCN(C(=O)N2CC3CC(C2)[C@H]2CCCC(=O)N2C3)CC1 (some centres undefined)	3%
Cc1ccc2[nH]c(=O)c(CCC(=O)NCc3ccncc3)cc2c1	-2%
COc1ccc(NC(=O)O[C@@H]2CC[C@]3(C)C(CC[C@@H](O)[C@H]3CC(=O)NCc3ccccc3OC)[C@]2(C)CO)cc1 (some centres undefined)	-8%
NC1C[C@H](Cn2cc(-c3cccnc3)nn2)[C@@H](O)[C@H]1O (some centres undefined)	9%[70.6 µM]
Cc1ccncc1-c1c(C)nn2c1N(C(=O)c1scnc1C)CCC2	1%[70.6 µM]
O=C(C[C@H]1NC(=O)c2ccccc2NC1=O)Nc1n[nH]c(CCc2ccccc2)n1	-1%
Cc1ccc(C(=O)NC2CCN(c3cc(-c4ccccc4)[nH]n3)C2)cc1 (centres undefined)	0%
